# RecA intein inh: blocks M. tuberculosis RecA intein splicing; P9WHJ3; actives 0.75% (n = 290,000); inhibition, %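 (about 9 µM by stock and volumes)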; cell-free RecA intein splicing, fluorescence; in the data active means inhibition above about 30%; inconclusive means no clear call, values can overlap the other calls;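 further: 0% = vehicle wells and 100% = reference inhibitor control wells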
# Target sequence (P9WHJ3 whole entry, looked up): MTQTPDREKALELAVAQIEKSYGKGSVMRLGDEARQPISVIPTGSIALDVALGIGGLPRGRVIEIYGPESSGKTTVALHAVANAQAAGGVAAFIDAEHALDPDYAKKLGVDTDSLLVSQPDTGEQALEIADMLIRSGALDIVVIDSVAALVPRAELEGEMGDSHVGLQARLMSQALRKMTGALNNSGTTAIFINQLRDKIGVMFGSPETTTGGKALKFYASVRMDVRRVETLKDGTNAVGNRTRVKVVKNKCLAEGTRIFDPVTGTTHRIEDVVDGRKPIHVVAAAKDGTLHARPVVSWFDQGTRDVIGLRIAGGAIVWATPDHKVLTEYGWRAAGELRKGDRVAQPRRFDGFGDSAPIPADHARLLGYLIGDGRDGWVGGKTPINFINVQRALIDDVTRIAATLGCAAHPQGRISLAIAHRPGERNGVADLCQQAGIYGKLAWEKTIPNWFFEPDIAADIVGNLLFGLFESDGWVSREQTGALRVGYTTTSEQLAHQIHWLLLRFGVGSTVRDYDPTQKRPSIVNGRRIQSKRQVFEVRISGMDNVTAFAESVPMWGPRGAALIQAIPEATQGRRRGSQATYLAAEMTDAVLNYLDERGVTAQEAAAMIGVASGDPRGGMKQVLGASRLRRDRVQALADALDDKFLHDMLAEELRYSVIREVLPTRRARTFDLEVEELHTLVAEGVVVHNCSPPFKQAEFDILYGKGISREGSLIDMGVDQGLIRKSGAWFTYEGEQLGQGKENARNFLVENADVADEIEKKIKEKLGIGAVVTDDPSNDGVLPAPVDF
# YopH PTP inh: inhibitors of Yersinia enterocolitica YopH tyrosine phosphatase. inhibition, %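 (about 10 µM by stock and volumes)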. fluorescence Ex485/Em525. actives 0.16% (n = 140,000);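 active means inhibition of 50% or more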;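 further: controls were vehicle for no effect and minimum signal wells for full effect; inactives centre near -20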
# Arbovirus anti: blocks arbovirus infection. actives 0.37% (n = 200,000). arbovirus infection cell-based antiviral screen. AID 1251. inhibition, % at 10 µM;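 active means inhibition from about 30%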;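 further: bluetongue infection of BSR cells; cell survival read as ATP light after 72 h; 0% = infected wells without compound and 100% = uninfected wells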
# Mtb H37Rv: M. tuberculosis H37Rv growth inhibitors, H37Rv strain (AID 1626). M. tuberculosis H37Rv growth inhibition; higher % means a stronger effect. inhibition, % at 10 µM; hits with a dose series show IC50 in µM. actives 0.95% (n = 220,000);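 active means confirmed in a dose series; inconclusive means inhibition above 80% but not taken into the dose series; inactive means below 80% or under 30% at every dose of the series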;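 further: bacteria incubated seven days before Alamar blue readout; 0% = bacteria only wells and 100% = bacteria with antibiotic wells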
# Mtb betalactam: beta-lactam sensitization of Mtb H37Rv | inhibition, % at 25 µM | AID 434955 | M. tuberculosis H37Rv growth with meropenem, percent inhibition; hits of this screen are not shown here | actives 0.27% (n = 330,000);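 active means about 74% or more and at least 40 points above the plate without the antibiotic, then above 30% in a dose series; inconclusive means first-round hits that could not be retested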;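 further: growth measured after seven days incubation then overnight dye step; 0% = bacteria only wells and 100% = bacteria with antibiotic; twin plates without the antibiotic show which effects depend on it; some results filed as inactive read as strong as hits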
# Arbovirus anti repeat: recorded beside Arbovirus anti, whose call it bears; inhibition, %; measured here: 10K subset replicate screen; many hits read low in the repeat;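 first of two repeat runs on a subset; 0% = infected and 100% = uninfected wells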
# Active calls of the source: *; ? = inconclusive; . = no result given. A portion of the library; rates above refer to the full screens.
SMILES,RecA intein inh,YopH PTP inh,Arbovirus anti,Mtb H37Rv,Mtb betalactam,others
CCOC(=O)c1cnn(-c2nc(-c3ccc(F)cc3)cs2)c1C(F)(F)F,1.4,-24,-1,4%,1,
CCC(C(=O)OCC(=O)Nc1ccc(Cl)c(S(=O)(=O)N(C)C)c1)c1ccccc1 (stereo not given),4.9,-25,20,3%,4,
Cc1cccc(NC(=S)NCc2cccn2C)c1,5.7,-7,-5,2%,-4,
Cn1c(C(=O)N2CCC(C(=O)N3CCOCC3)CC2)cc2sccc21,-2.2,-18,5,-2%,-3,Arbovirus anti repeat=9
O=C(CSc1nnnn1-c1ccc(O)cc1)Nc1ccc(N2CCOCC2)c(Cl)c1,3.8,11,-4,4%,72,
C/C(=N\NC(=O)CCc1ccccc1)c1ccc(Br)cc1,0.9,.,2,7%,0,
COc1ccc(C(=O)C2CCCN(Cc3ccon3)C2)cc1OC (stereo not given),-1.7,.,3,0%,-6,
Cc1ccc(C(=O)Nn2cnnc2)cc1[N+](=O)[O-],0.0,-40,.,4%,1,
COc1ccccc1NC(=O)C(=O)NCC(c1ccco1)N1CCc2ccccc21 (stereo not given),4.6,.,.,.,-3,
O=C1CSC(=S)N1/N=C/c1cc(Br)c(O)c(Br)c1,9.8,.,.,.,4,
O=C(O)c1nn(-c2ccc(Cl)cc2)ccc1=O,-0.5,-28,-6,8%,-14,
CC(=O)c1cccc(NC(=O)CN(c2ccccc2)S(C)(=O)=O)c1,1.2,-24,-8,2%,-3,
Nc1cc(-c2ccc(Cl)cc2)nn1S(=O)(=O)c1ccccc1,0.0,-31,-17,2%,-6,
O=C(CSC1=Nc2ccccc2C2CC=NN12)Nc1ccc(F)cc1Cl (stereo not given),-0.6,.,6,2%,-5,
O=C(NCC(=O)N1CCCCC1)c1ccc(Br)o1,-1.8,.,.,.,-14,
O=C(NCc1ccccc1)C1=C[C@@H](c2ccc(Br)cc2)C[C@@H](OCCCCO)O1,8.9,.,-4,-5%,8,
O=C(Cn1c(=O)c2cccn2c2ccccc21)Nc1ccc(F)cc1F,-0.6,.,.,.,-6,
Cc1nn(-c2ccccc2)c2[nH]c(=O)cc(C(F)(F)F)c12,0.4,.,.,.,2,
Cc1ccc(OC(=O)C2c3ccccc3Oc3ccccc32)cc1C,-0.2,-25,0,?,96,

# Structural class: the compounds so far with sulfur.
SMILES,RecA intein inh,YopH PTP inh,Arbovirus anti,Mtb H37Rv,Mtb betalactam,others
CCOC(=O)c1cnn(-c2nc(-c3ccc(F)cc3)cs2)c1C(F)(F)F,1.4,-24,-1,4%,1,
CCC(C(=O)OCC(=O)Nc1ccc(Cl)c(S(=O)(=O)N(C)C)c1)c1ccccc1 (stereo not given),4.9,-25,20,3%,4,
Cc1cccc(NC(=S)NCc2cccn2C)c1,5.7,-7,-5,2%,-4,
Cn1c(C(=O)N2CCC(C(=O)N3CCOCC3)CC2)cc2sccc21,-2.2,-18,5,-2%,-3,Arbovirus anti repeat=9
O=C(CSc1nnnn1-c1ccc(O)cc1)Nc1ccc(N2CCOCC2)c(Cl)c1,3.8,11,-4,4%,72,
O=C1CSC(=S)N1/N=C/c1cc(Br)c(O)c(Br)c1,9.8,.,.,.,4,
CC(=O)c1cccc(NC(=O)CN(c2ccccc2)S(C)(=O)=O)c1,1.2,-24,-8,2%,-3,
Nc1cc(-c2ccc(Cl)cc2)nn1S(=O)(=O)c1ccccc1,0.0,-31,-17,2%,-6,
O=C(CSC1=Nc2ccccc2C2CC=NN12)Nc1ccc(F)cc1Cl (stereo not given),-0.6,.,6,2%,-5,
